Source: PubChem BioAssay (ICCB-Longwood Screening Facility, Harvard Medical School)
HCMV NEC inh = cytomegalovirus nuclear egress complex inhibition. HTRF UL50-UL53 interaction, normalized percent inhibition. inhibition, % (no concentration beside the values). 0.15% of 190,000 active. AID 1918969;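 active = both replicates at 50% or more, plus weaker picks with an unusually low signal ratio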;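 also: stock transfer was 100 nL into about 20 µL; 0% = negative control wells and 100% = wells with untagged competitor protein; inactives centre near -12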
* = called active by the depositor; & = joins results of further samples. Only part of the results is shown; the hit share may differ from the screen's.

compound | HCMV NEC inh
Cc1cc(=O)oc2cc(OCC(=O)O)c(Cl)cc12 | -18
CC(C)(C)c1cc(C(=O)CCN2CCOCC2)cc(C(C)(C)C)c1O | -3
CC(NC(=O)C(C)(C)C)c1nc2ccccc2[nH]1 (centres undefined) | 2
Cc1nc(C(C)Nc2ncnc3sccc23)cs1 (centres undefined) | -4
Cc1cc2nc3c(=O)[nH]c(=O)nc-3n(C[C@@H](O)[C@@H](O)[C@@H](O)COP(=O)(O)O)c2cc1C | -166
CCCCC/C=C\C/C=C\C/C=C\C/C=C\CCCC(=O)O[C@H](COCCCCCCCCCCCCCCCC)COP(=O)([O-])OCC[N+](C)(C)C | 11&11&10
COc1cc(C2C(C#N)=C(SCc3ccccc3)NC3=C2C(=O)CCC3)ccc1O (centres undefined) | -21&-23
CSc1nc2ccc(NC(=O)C3CCCCC3)cc2s1 | -19
O=C(CCn1cnnn1)N1CCc2[nH]nc(-c3ccc4c(c3)OCO4)c2C1 | 6
CCOC(=O)c1cc(C#N)c(Nc2ccccc2OC)nc1C(F)(F)F | -8
O=C(Oc1ccc2c3c(c(=O)oc2c1)CCCC3)c1ccccc1 | 11
CCn1c(C(Cc2ccccc2)NC(=O)COC)nc2ccccc21 (centres undefined) | -15
COc1ccc(CNC(=O)c2ccc[nH]2)cc1 | 3
CN(C)c1ccc(/C=C2/N=C(c3cccs3)OC2=O)cc1 | -12
O=C(Nc1nccs1)c1cccc2c1-c1ccccc1C2=O | -6
O=C(O)c1ccc(O)cc1O | -31
CC(=O)NCCc1nc2ccccc2n1CC(C)C | -21
CC(NC(=O)C(O)c1cc(F)cc(F)c1)C(=O)NC1C(=O)N(C)c2ccccc2-c2ccccc21 (centres undefined) | 6
COCCOC(=O)C1=C(C)NC(C)=C(C(=O)OCC=Cc2ccccc2)C1c1cccc([N+](=O)[O-])c1 (centres undefined) | -7
CNCCCNC1CCN(c2ccc(-c3cccc(F)c3)cc2)CC1 | -1
Nc1nc(O)c(C2=C3C(=Nc4ccccc43)C(=O)NCC2)[nH]1 | -37
C[n+]1[nH]oc(=O)c1-c1ccccc1 | -27&-29
O=C(O)[C@H](Cc1c[nH]c2ccccc12)N1C(=O)c2ccccc2C1=O | -9
COc1cc2ccc(=O)oc2cc1O | -30
O=C1C(Cl)=C(N2C(=O)CCC2=O)C(=O)c2ccccc21 | -44
O=C(CCCOc1ccc(Cl)cc1Cl)NO | -17
O=c1[nH]c(=O)c2ccccc2o1 | -31
Cc1ccc(OCc2nnc(NC(=O)NCCc3cnc[nH]3)s2)cc1 | -28
Cc1noc(C)c1CSc1nnnn1-c1ccccc1 | 7
COc1ccccc1CNc1ncnc2c1cnn2-c1ccccc1 | 5

Compounds shown so far that have a thiophene ring, fused or not:
compound | HCMV NEC inh
Cc1nc(C(C)Nc2ncnc3sccc23)cs1 (centres undefined) | -4
CN(C)c1ccc(/C=C2/N=C(c3cccs3)OC2=O)cc1 | -12

Remaining list, next part:
compound | HCMV NEC inh
CC(C(=O)NCc1ccncc1)n1c(C(F)(F)F)nc2ccccc21 (centres undefined) | -9
CC[n+]1c(-c2c(C)oc3cc(O)ccc3c2=O)csc1C | 6&-10
C=CCn1c(COc2ccccc2)nc2ccccc21 | -15
CCS(=O)(=O)N1CCN=C1SC(C)c1ccccc1 (centres undefined) | 6
O=C(C=Cc1ccccc1)NC(NC(=S)Nc1cccc2cccnc12)C(Cl)(Cl)Cl (centres undefined) | -30
Cc1ccc(C)c(-n2[nH]cc(-n3cncn3)c2=O)c1 | -3
N#Cc1cc2c(nc1SCC(N)=O)CCCC2=O | 6
CS(=O)(=O)N1CCSC1c1ccc(Cl)cc1 (centres undefined) | -18
CCOc1ccc(C(=O)C[n+]2ccsc2N)cc1 | -29
Cc1ccc(OCC(=O)NC(Cc2c[nH]c3ccccc23)C(=O)O)cc1 (centres undefined) | 4
Cc1nc2sccn2c1CN1CCC2(CC1)C(=O)N(CC(C)C)C(=O)N2CCc1ccccc1 | 3
O=C(Cc1ncc(C(F)(F)F)cc1Cl)N1CCN(c2ccc(F)cc2)CC1 | 3
N#CCNC(=O)c1ccc(-c2ccnc(Nc3ccc(N4CCOCC4)cc3)n2)cc1 | -16&-18&-23&-36
CCOC(=O)c1c(-c2ccccc2)oc2ccc(O)c(CN3CCN(C)CC3)c12 | -9
COc1ccc(CN(C)C(=O)Nc2nc(-c3ccccc3)ns2)cc1 | 47&47
OCc1nc2ccccc2n1Cc1ccccc1 | -19
CCOC(=O)COc1cccc2c1CCN(Cc1ccccc1)C2=O | -5
Cc1nn(S(=O)(=O)N(C)C)c(C)c1Br | -9
O=C(c1cc(=O)c2ccccc2o1)N1CCN(c2ccccc2)CC1 | -15
COc1ccc(-c2coc3cc(O)ccc3c2=O)cc1 | -6
O=S(=O)(c1cccs1)N1CCc2ccccc21 | -18
CCOc1ccc(C(=O)Nc2nc3c(OC)cccc3s2)cc1 | -17
O=C1NCCN1c1ncc([N+](=O)[O-])s1 | -146
CCOc1ccc(C(=O)CSCC(=O)O)cc1 | -26
O=c1[nH]c(SCc2cccc(C(F)(F)F)c2)nc2c1cnn2-c1ccccc1 | 0
Cn1c(=O)c2c(nc(CN(Cc3ccccc3)Cc3ccccc3)n2CC(N)=O)n(C)c1=O | 4
CCN(CCCNc1ncnc2nc[nH]c12)c1cccc(C)c1 | 6
O=C1/C(=C/c2cccnc2)CCCC/C1=C\c1cccnc1 | 13&2
CC(=O)c1cc2ccccc2oc1=O | -125
CCCCn1c(CNC(=O)c2ccccc2)nc2ccccc21 | 6

5 consecutive compounds already listed, for reference:
compound | HCMV NEC inh
CCOC(=O)COc1cccc2c1CCN(Cc1ccccc1)C2=O | -5
Cc1nn(S(=O)(=O)N(C)C)c(C)c1Br | -9
O=C(c1cc(=O)c2ccccc2o1)N1CCN(c2ccccc2)CC1 | -15
COc1ccc(-c2coc3cc(O)ccc3c2=O)cc1 | -6
O=S(=O)(c1cccs1)N1CCc2ccccc21 | -18

The results go on.
canonical_smiles	HCMV NEC inh
CCc1nnc(NC(=O)/C=C/c2ccccc2)s1	-10
Nc1ncnc2c1c(-c1cccc(OCc3ccccc3)c1)cn2C1CC(CN2CCCC2)C1 (centres undefined)	6
O=C(Cc1ccccc1)Oc1cccc2cccnc12	-22
CCCCC(C)(C)[C@H](O)/C=C/[C@H]1[C@H](O)CC(=O)[C@@H]1CC(=O)CCCCC(=O)O	-14&-14
COc1ccccc1C(=O)N1CCN2C(=O)[C@@H]3CSCN3C(=O)[C@H]2C1	-7
COc1ccc2cccc(CCNC(C)=O)c2c1	-16&-21&-21&-25
O=c1cc(-c2cccnc2)nc(-c2ccc(CN3CCCC(CO)C3)cc2)[nH]1 (centres undefined)	-29&-29
CN1/C(=C\C=Nc2ccc(C(=O)O)cc2)C(C)(C)c2ccccc21	-8
CC(N)(C(=O)O)c1cccc(OCc2ccccc2F)c1 (centres undefined)	-1
O=C(O)C(O)Cc1ccc(O)c(O)c1 (centres undefined)	48
CCOC(=O)c1ccc(NC(=O)CSc2ccc(Cl)cc2)cc1	-18
NC[C@@H]1O[C@H](O[C@H]2[C@@H](O)[C@H](O[C@@H]3[C@@H](O)[C@H](N)C[C@H](N)[C@H]3OC3O[C@H](CO)[C@@H](O)[C@H](O)[C@H]3N)O[C@@H]2CO)[C@H](N)[C@@H](O)[C@@H]1O (some centres undefined)	-17
S=C=Nc1ccc(N=C=S)cc1	-44
Cc1ccc(CNC(=O)CN2C=NS(=O)(=O)c3ccccc32)cc1	2
Cc1sc(NC(=O)/C=C/c2ccco2)c(C(N)=O)c1C	-51

Next section:
canonical_smiles	HCMV NEC inh
O=S(=O)(/C=C/c1ccccc1)n1ccnc1	-11
O=C(O)C1CC2CC3CC(C2)CC1(O)C3 (centres undefined)	3
O=C(O)c1cccc(NS(=O)(=O)/C=C/c2ccccc2)c1	-32
CCN1C(=O)c2cccc3c(NC(=O)C(C)(C)C)ccc1c23	-70
CC(C)(C)c1cc(=O)[nH]c(SCc2ccccc2)n1	-5
Nc1nc2n[nH]nc2c(=O)[nH]1	-14&4
O=C1CN(c2ccc(C(F)(F)F)cn2)CCN1Cc1ccc2c(c1)OCO2	-13&-13
COc1ccc(/C=C/c2ccccc2F)cc1	-16&-16
COc1ccccc1C(=O)CN1C=NS(=O)(=O)c2ccccc21	-11
O=C1CCCC2=C1C(c1ccccc1F)n1ncnc1N2 (centres undefined)	-9
CC(C)CSc1nc2c(cnn2-c2ccccc2)c(=O)[nH]1	-1
Cc1cc2nnc(SCC(=O)O)n2c2ccccc12	-11
N#Cc1cc(N)ccc1Sc1ccccc1	-18
Cc1ccc(NC(=O)c2ccccc2C(=O)O)cc1Br	8
Cc1nc(CCNC(=O)Nc2nnc(-c3cccs3)s2)sc1C	-22&-22

Next compounds follow:
canonical_smiles	HCMV NEC inh
O=C1O/C(=C/Br)CCC1c1cccc2ccccc12 (centres undefined)	-9&-9
CC12CCC(C(=O)Nc3cccc4cccnc34)(CC1=O)C2(C)C (centres undefined)	-14
COc1cc(/C=C/C(=O)CC(=O)/C=C/c2ccc(O)c(OC)c2)ccc1O	-9&-9
COc1ccccc1-c1nnc(NC(=O)c2ccccc2)o1	-8
c1ccc(Cc2noc(-c3cccc4nccnc34)n2)cc1	-77
Cc1cccc(C2CCCN(C(=O)c3cc(C(C)C)no3)C2)c1 (centres undefined)	-12
CC1(C)S[C@@H]2C(NC(=O)C(N)c3ccccc3)C(=O)N2C1C(=O)O (some centres undefined)	-24
CC1CCc2nc(NC(=O)c3ccc(F)c(F)c3)sc2C1 (centres undefined)	-14
COc1ccc(-c2csc(NC(=O)CCOc3ccccc3)n2)cc1	-4
Cc1nc(SCCC(=O)O)c2c3c(sc2n1)CCCC3	10
CC(Cc1cccnc1)n1cnc2sc3c(c2c1=O)CCCCC3 (centres undefined)	-21
CCOC(=O)c1cc(C#N)c(Sc2n[nH]c(=O)n2Cc2ccc(C(F)(F)F)cc2)nc1C	-27
CC(NC(=O)Cc1cccs1)C(c1cccs1)N1CCN(C)CC1 (centres undefined)	-12
Cc1cc(C)c(-c2nnc(NC(=O)CSC3=NCCS3)s2)c(C)c1	7
CCCC(NS(=O)(=O)c1ccc(C)cc1)C(=O)O (centres undefined)	-22

Exported as labelled records: four of the compounds above
Cc1noc(C)c1CSc1nnnn1-c1ccccc1
  HCMV NEC inh: 7
O=C(Oc1ccc2c3c(c(=O)oc2c1)CCCC3)c1ccccc1
  HCMV NEC inh: 11
CCOC(=O)c1cc(C#N)c(Sc2n[nH]c(=O)n2Cc2ccc(C(F)(F)F)cc2)nc1C
  HCMV NEC inh: -27
CCCC(NS(=O)(=O)c1ccc(C)cc1)C(=O)O (centres undefined)
  HCMV NEC inh: -22

(further entries)
canonical_smiles	HCMV NEC inh
CCOC(=O)C1=C(C)OC(N)=C(C#N)C1c1cccnc1 (centres undefined)	-13&-14
COC(=O)CC(c1ccc(O)cc1)N1Cc2ccccc2C1=O (centres undefined)	-6
O=c1oc2ccc(Br)cc2cc1-c1ccc2c(c1)OCCO2	14&-1
Cc1ccc2c(c1)c1c(n2CC(O)CNCc2ccccc2)C(=O)CCC1 (centres undefined)	-22
CC(C)C1=NOC(c2nc(C(C)c3ccccc3)no2)C1 (centres undefined)	-3
CCCC(=O)Nc1nc2ccc(S(=O)(=O)N3CCCCC3)cc2s1	-9
COCCn1c(=NC(=O)CCc2ccccc2)sc2cc(NC(C)=O)ccc21	-6
Cc1ccc(-c2nnc(NC(=O)C3CCCCC3)s2)cc1	-26
O=C1N[C@@H](Cc2c[nH]c3ccccc23)C(=O)N2C[C@@H](NCc3ccccc3Cl)C[C@@H]12	-7
COCCN1C(=O)c2oc3cc(C)c(C)cc3c(=O)c2C1c1ccccc1F (centres undefined)	5
NS(=O)(=O)c1ccc(C(=O)NCc2ccccc2)cc1	-19
Cc1ccc(/C=C2\SC(=O)NC2=O)o1	-55
COC(=O)C1=C(C)NC(C)=C(C(=O)OCCCN2CCC(c3ccccc3)(c3ccccc3)CC2)[C@@H]1c1cccc([N+](=O)[O-])c1	-8
O=C(Cn1cc(-c2cncnc2)cn1)Nc1ccnn1Cc1ccco1	-2
N#CC1=C(N)OC2=C(C(=O)CCC2)C1C1CCCCC1 (centres undefined)	-21

Further compounds follow.
canonical_smiles	HCMV NEC inh
O=S1(=O)c2cccc3cccc(c23)N1CCCN1CCN(c2ccc(F)cc2)CC1	-2
CC1=CC(=O)C2=C(C)CC[C@@H]3[C@H](OC(=O)[C@H]3C)[C@@H]12	-22
CCCCC[C@H](O)/C=C/[C@H]1C=CC(=O)[C@@H]1CCCCCCC(=O)OCC	7&7
CCCCn1c(CCNC(=O)c2cccs2)nc2ccccc21	-1
O=C(O)Cc1cc2ccccc2nc1C(=O)O	4
CC1(CN2CCC(n3c(=O)[nH]c4ccccc43)CC2)OCc2ccccc2-n2cccc21 (centres undefined)	17
O=c1cc(CO)oc(CN2CCCCC2)c1O	-17
CC(C)(C)c1csc(NC(=O)c2ccc(F)cc2)n1	-24
C=CCn1nc(C(=O)N2CCCC2)c2c1CCC(NCc1ccccc1OC(F)(F)F)C2 (centres undefined)	-7
N#CCc1cc(Cl)cc2c1OCOC2	-13
COc1ccc(S(=O)(=O)n2ccc(C3CC3)n2)cc1	2
CCSCCNc1nccc(-c2cn(C)nc2C)n1	0&0
Cc1ccc(Cl)cc1NC(=O)N[C@H]1C[C@H]2C(=O)N[C@H](C(C)C)C(=O)N2C1	-4
CC[N+]1(C)[C@@H]2CC[C@H]1CC(OC(=O)[C@H]1CCC(C(=O)OC3C[C@H]4CC[C@@H](C3)[N+]4(C)CC)(c3ccccc3)c3ccccc31)C2 (some centres undefined)	-10
C/C=C/C(=O)O[C@H](COCCCCCCCCCCCCCCCC)COP(=O)([O-])OCC[N+](C)(C)C	-7&-7
